# Screening results from PubChem BioAssay.
# STK33 kinase inh – human STK33 kinase inhibition; AID 2661; actives 0.073% (n = 320,000); inhibition, % at 10 µM; purified STK33, MBP phosphorylation, ADP-Glo luminescence; Q9BYT3;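 active = inhibition at or above 25%, using the most active replicate where run in duplicate; inactive = inhibition below 25%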
# Target sequence (Q9BYT3 whole entry, looked up): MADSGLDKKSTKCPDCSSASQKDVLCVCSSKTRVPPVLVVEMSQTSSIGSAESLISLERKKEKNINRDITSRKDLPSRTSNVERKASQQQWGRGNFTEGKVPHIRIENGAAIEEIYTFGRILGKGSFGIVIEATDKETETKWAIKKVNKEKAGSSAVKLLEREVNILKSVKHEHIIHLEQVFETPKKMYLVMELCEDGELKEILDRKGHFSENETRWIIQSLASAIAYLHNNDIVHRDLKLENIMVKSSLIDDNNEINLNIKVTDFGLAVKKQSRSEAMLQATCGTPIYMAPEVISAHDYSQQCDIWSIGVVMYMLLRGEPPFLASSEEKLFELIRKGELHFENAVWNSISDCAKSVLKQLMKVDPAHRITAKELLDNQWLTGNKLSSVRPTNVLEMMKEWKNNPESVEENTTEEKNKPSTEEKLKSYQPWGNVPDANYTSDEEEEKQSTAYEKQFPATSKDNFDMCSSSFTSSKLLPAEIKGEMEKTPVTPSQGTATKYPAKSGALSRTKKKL
# Starred values were filed as active, the others as inactive. Not all compounds are listed, and most or all hits are left out here.
SMILES,STK33 kinase inh
COc1ccc(C)cc1NC(=O)c1cc2c(s1)CCC2,-0.4
CCNC(=O)COC(=O)C1CCN(S(=O)(=O)c2ccc3c(c2)OCCO3)CC1,-3.6
COc1ccc(C(=O)NC(=S)Nc2cccnc2)cc1Cl,-1.2
O=C(NCC1CCCO1)c1ccc2c(c1)N(Cc1ccc(F)cc1)CCS2 (stereo not drawn),-0.6
CCCSc1nc2ccccc2n1CC(=O)O,0.4
COc1cccc(NC(=O)CSc2nc3c(oc4ccccc43)c(=O)[nH]2)c1,-0.7
O=C1c2ccccc2NC(c2ccc(Cl)cc2Cl)N1O (stereo not drawn),0.9
C=CCSc1n[nH]c(=O)n1-c1cccc(C(F)(F)F)c1,-3.4
COCCN(CCOC)C(=O)CN1C(=O)NC(Cc2c[nH]c3ccccc23)C1=O (stereo not drawn),-0.1
CC1(C)Cc2ccccc2C(NNC(=O)c2ccccn2)=N1,-0.1
c1ccc(-c2cc(-c3ccccc3)on2)cc1,1.4
CN(C)C(=O)CSc1nc2ccccc2n1Cc1ccccc1,0.3
CC1CCCN(C(=O)CCNS(=O)(=O)c2ccc3c(c2)oc(=O)n3C)C1 (stereo not drawn),-1.8
CN(CC(=O)Nc1ccc(F)c(F)c1F)C(=O)c1ccc(-n2cncn2)c([N+](=O)[O-])c1,-1.5
O=C(Nc1ccc(Cl)c(Cl)c1)Nc1ccccc1O,-1.9
COC(=O)/C(C(C)=O)=C(\C=C\N(C)C)N(C)C,0.1
COc1ccnc(-n2cccc2C=O)c1C#N,0.3
Cc1ccc(-n2nc3ccc(NC(=O)C(C)C)cc3n2)cc1,-1.1
Cc1cccc(Cn2cnc3c(nnn3Cc3ccc(Cl)cc3)c2=O)c1,-1.4
Cc1cccn2c(=O)c3cc(C(=O)NCCc4ccccc4)c(=N)n(CC4CCCO4)c3nc12 (stereo not drawn),0.3
Cc1cc(N2CCC(C(=O)NCC3CC3)CC2)nc(-c2ccccc2)n1,0.8
Cc1ccc(-c2nsc(SCC(=O)Nc3ccc4c(c3)OCO4)n2)cc1,-0.9
CCOc1cc(NC(=S)NCC2CCCO2)c(OCC)cc1NC(=O)c1cccc(F)c1 (stereo not drawn),1.1
O=C(COc1ccc(S(=O)(=O)N2CCOCC2)cc1)NCCc1ccccc1,-2.9
CC12CCC(C(=O)Nc3ccccc3Cl)([C@H](Br)C1=O)C2(C)C (stereo partly drawn),-0.1

# Among those listed so far, these contain fluorine.
SMILES,STK33 kinase inh
O=C(NCC1CCCO1)c1ccc2c(c1)N(Cc1ccc(F)cc1)CCS2 (stereo not drawn),-0.6
C=CCSc1n[nH]c(=O)n1-c1cccc(C(F)(F)F)c1,-3.4
CN(CC(=O)Nc1ccc(F)c(F)c1F)C(=O)c1ccc(-n2cncn2)c([N+](=O)[O-])c1,-1.5
CCOc1cc(NC(=S)NCC2CCCO2)c(OCC)cc1NC(=O)c1cccc(F)c1 (stereo not drawn),1.1

# Exported as labelled records: part of the list above.
Cc1cc(N2CCC(C(=O)NCC3CC3)CC2)nc(-c2ccccc2)n1
- STK33 kinase inh = 0.8
Cc1ccc(-c2nsc(SCC(=O)Nc3ccc4c(c3)OCO4)n2)cc1
- STK33 kinase inh = -0.9
CCOc1cc(NC(=S)NCC2CCCO2)c(OCC)cc1NC(=O)c1cccc(F)c1 (stereo not drawn)
- STK33 kinase inh = 1.1
O=C(COc1ccc(S(=O)(=O)N2CCOCC2)cc1)NCCc1ccccc1
- STK33 kinase inh = -2.9
